RecA splice inh = blocks M. tuberculosis RecA intein splicing; P9WHJ3; cell-free RecA intein splicing, fluorescence; inhibition, %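 (about 9 µM by stock and volumes)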; hit rate 0.75% among 290,000; in the data active = inhibition above about 30%; inconclusive = no clear call, values can overlap the other calls;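 note: 0% = vehicle wells and 100% = reference inhibitor control wells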
Target sequence (P9WHJ3 whole entry, looked up, canonical isoform): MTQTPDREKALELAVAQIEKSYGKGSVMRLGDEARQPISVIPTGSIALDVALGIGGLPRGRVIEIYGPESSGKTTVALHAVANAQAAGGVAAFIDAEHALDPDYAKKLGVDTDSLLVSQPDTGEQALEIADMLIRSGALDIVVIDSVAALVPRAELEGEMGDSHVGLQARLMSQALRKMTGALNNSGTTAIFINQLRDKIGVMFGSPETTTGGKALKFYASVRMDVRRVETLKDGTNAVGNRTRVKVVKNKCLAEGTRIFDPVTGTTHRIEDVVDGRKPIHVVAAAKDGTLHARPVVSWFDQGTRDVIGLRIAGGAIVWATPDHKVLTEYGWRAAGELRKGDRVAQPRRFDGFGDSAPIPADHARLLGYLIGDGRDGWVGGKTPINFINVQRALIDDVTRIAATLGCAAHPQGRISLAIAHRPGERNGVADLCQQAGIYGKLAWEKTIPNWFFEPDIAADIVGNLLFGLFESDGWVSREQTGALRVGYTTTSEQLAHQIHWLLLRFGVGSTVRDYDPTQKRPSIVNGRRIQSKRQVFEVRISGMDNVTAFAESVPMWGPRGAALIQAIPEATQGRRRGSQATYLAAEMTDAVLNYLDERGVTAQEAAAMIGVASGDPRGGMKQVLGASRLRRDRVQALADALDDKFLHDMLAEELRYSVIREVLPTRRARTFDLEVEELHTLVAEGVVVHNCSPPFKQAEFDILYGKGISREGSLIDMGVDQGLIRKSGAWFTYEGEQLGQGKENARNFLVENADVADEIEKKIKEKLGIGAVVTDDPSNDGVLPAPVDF
Mtb growth = M. tuberculosis H37Rv growth inhibitors, H37Rv strain (AID 1626) | M. tuberculosis H37Rv growth inhibition; higher % means a stronger effect | inhibition, % at 10 µM, or IC50 in µM where a hit was titrated | hit rate 0.95% among 220,000;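 active = confirmed in a dose series; inconclusive = inhibition above 80% but not taken into the dose series; inactive = below 80% or under 30% at every dose of the series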;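 note: bacteria incubated seven days before Alamar blue readout; 0% = bacteria only wells and 100% = bacteria with antibiotic wells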
Arbovirus anti = blocks arbovirus infection; arbovirus infection cell-based antiviral screen; inhibition, % at 10 µM; hit rate 0.37% among 200,000; AID 1251;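 active = inhibition from about 30%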;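 note: bluetongue infection of BSR cells; cell survival read as ATP light after 72 h; 0% = infected wells without compound and 100% = uninfected wells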
YopH inh = YopH (Yersinia) phosphatase inhibition; fluorescence Ex485/Em525; inhibition, %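 (about 10 µM by stock and volumes)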; hit rate 0.16% among 140,000; AID 898;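 active = inhibition of 50% or more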;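 note: controls were vehicle for no effect and minimum signal wells for full effect; inactives centre near -20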
Mtb bLac sens = beta-lactam sensitization of Mtb H37Rv; inhibition, % at 25 µM; M. tuberculosis H37Rv growth with meropenem, percent inhibition; hits of this screen are not shown here; hit rate 0.27% among 330,000;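 active = about 74% or more and at least 40 points above the plate without the antibiotic, then above 30% in a dose series; inconclusive = first-round hits that could not be retested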;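 note: growth measured after seven days incubation then overnight dye step; 0% = bacteria only wells and 100% = bacteria with antibiotic; twin plates without the antibiotic show which effects depend on it; some results filed as inactive read as strong as hits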
Arbovirus anti repeat = second read-out of Arbovirus anti, no call of its own (marks repeat the call); inhibition, %; measured here: 10K subset replicate screen; many hits read low in the repeat;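 first of two repeat runs on a subset; 0% = infected and 100% = uninfected wells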
* hit, by the source's call; i = inactive; u = inconclusive; x = not tested or not shown. Some of the compounds tested; count on the stated rates, not on these rows.

SMILES	RecA splice inh	Mtb growth	Arbovirus anti	YopH inh	Mtb bLac sens	others
CC1(C)OC(C(O)(c2ccccc2)c2ccccc2)[C@@H](C(O)(c2ccccc2)c2ccccc2)O1 (some centres undefined)	8.3	x	x	x	-7.8
O=C(CSc1nncn1-c1ccccc1)NCc1cccs1	-4.0	-5.4%	2.4	-24.1	-11.0
CCOc1cc(CNC(C)(C)C)ccc1OCC(=O)Nc1cccc(C(F)(F)F)c1	-0.2	14.9%	-8.8	x	1.6
CC(C)(C)NC(=O)C(Cc1ccccc1)NS(=O)(=O)c1cccc2nsnc12 (centres undefined)	-17.4	-16.8%	3.0	29.8	-1.8
CC1N(C(=O)N2CCOCC2)CCN1S(=O)(=O)c1ccc(Cl)cc1 (centres undefined)	-3.8	x	x	x	2.6
CC(C)OP(=O)(OC(C)C)C(NC(=O)c1ccc(Br)cc1)c1ccccc1 (centres undefined)	7.2	-2.5%	-29.0	-35.4	-22.8
COc1ccc(C(=O)Nc2nc3ccccc3s2)cc1	1.0	x	x	x	73.8
COc1ccc(NC(=O)C2CCCNC2)cc1OCC(C)C (centres undefined)	-0.6	-11.2%	3.7	-3.6	-5.9	Arbovirus anti repeat=4.1
COc1ccc(NS(=O)(=O)c2cc3c(cc2C)N(C)CCO3)cc1	-1.0	x	x	x	2.2
CN1CC2CCCC3(C1)C(=O)NC1(CCCCC1)N=C23 (centres undefined)	-3.6	-3.0%	5.4	-44.7	5.5
CCCCn1c(N)c(N(CCC(C)C)C(=O)c2sc3nc4n(c(=O)c3c2C)CCC4)c(=O)[nH]c1=O	2.2	x	x	x	-8.3
CCN(CC)c1ccc2cc(-c3nc(-c4ccc(OC)cc4)cs3)c(=O)oc2c1	x	-9.8%	-2.1	-21.9	52.9
COc1ccc(C2C(Oc3ccccc3)C(=O)N2c2ccc(C)c(C)c2)cc1OC (centres undefined)	-0.4	4.9%	x	-32.1	-13.6
COc1ccccc1/C=C/C(=O)N1CCOCC1	-3.1	-12.7%	6.9	-0.5	-2.4
CS(=O)(=O)N1CCc2cc(C(=O)N3CCN(c4cccc(Cl)c4)CC3)ccc21	-0.9	x	x	x	3.6
O=C(O)CSc1nnc(-c2ccccc2)o1	-1.7	-10.7%	4.6	-52.0	1.2
COc1cc(/C=C/C(=O)O)cc(S(=O)(=O)N2CCc3ccccc3C2)c1OC	1.0	-4.3%	9.0	x	-7.8
c1ccc(-c2nc3ccccc3o2)nc1	-0.3	x	3.7	-56.3	-6.3
Cc1ccc(OCC(=O)NNC(=O)C2CCCO2)c(C)c1 (centres undefined)	3.3	-1.4%	3.3	x	-1.5
O=C(Nc1ccc(F)cc1)N1CC2CC(C1)c1cccc(=O)n1C2 (centres undefined)	-2.6	-6.9%	-2.1	0.1	5.5
Cc1ccc(-n2c(SCC(=O)Nc3ccc4c(c3)OCO4)nnc2-c2ccccn2)cc1	0.1	-1.4%	-1.1	-15.5	u
O=C(NCCc1c[nH]c2ccccc12)c1ccc(S(=O)(=O)NCc2ccco2)cc1	1.1	11.6%	-7.8	-15.2	u
CCCCn1c(N)c(N(CC)C(=O)c2cc(CC)c(C)s2)c(=O)[nH]c1=O	-1.5	x	x	x	-5.2
CN(c1ccccc1)C(c1ccc(F)cc1)c1nnnn1CC1CCCO1 (centres undefined)	1.7	0.1%	-5.8	-13.5	-4.0
CCCCN(CCCC)CCNC(=O)c1cn(CC)c2ccc(S(=O)(=O)N3CCCC3)cc2c1=O	5.0	x	x	x	-0.9

18 consecutive entries out of the list so far:
SMILES	RecA splice inh	Mtb growth	Arbovirus anti	YopH inh	Mtb bLac sens	others
CC1(C)OC(C(O)(c2ccccc2)c2ccccc2)[C@@H](C(O)(c2ccccc2)c2ccccc2)O1 (some centres undefined)	8.3	x	x	x	-7.8
O=C(CSc1nncn1-c1ccccc1)NCc1cccs1	-4.0	-5.4%	2.4	-24.1	-11.0
CCOc1cc(CNC(C)(C)C)ccc1OCC(=O)Nc1cccc(C(F)(F)F)c1	-0.2	14.9%	-8.8	x	1.6
CC(C)(C)NC(=O)C(Cc1ccccc1)NS(=O)(=O)c1cccc2nsnc12 (centres undefined)	-17.4	-16.8%	3.0	29.8	-1.8
CC1N(C(=O)N2CCOCC2)CCN1S(=O)(=O)c1ccc(Cl)cc1 (centres undefined)	-3.8	x	x	x	2.6
CC(C)OP(=O)(OC(C)C)C(NC(=O)c1ccc(Br)cc1)c1ccccc1 (centres undefined)	7.2	-2.5%	-29.0	-35.4	-22.8
COc1ccc(C(=O)Nc2nc3ccccc3s2)cc1	1.0	x	x	x	73.8
COc1ccc(NC(=O)C2CCCNC2)cc1OCC(C)C (centres undefined)	-0.6	-11.2%	3.7	-3.6	-5.9	Arbovirus anti repeat=4.1
COc1ccc(NS(=O)(=O)c2cc3c(cc2C)N(C)CCO3)cc1	-1.0	x	x	x	2.2
CN1CC2CCCC3(C1)C(=O)NC1(CCCCC1)N=C23 (centres undefined)	-3.6	-3.0%	5.4	-44.7	5.5
CCCCn1c(N)c(N(CCC(C)C)C(=O)c2sc3nc4n(c(=O)c3c2C)CCC4)c(=O)[nH]c1=O	2.2	x	x	x	-8.3
CCN(CC)c1ccc2cc(-c3nc(-c4ccc(OC)cc4)cs3)c(=O)oc2c1	x	-9.8%	-2.1	-21.9	52.9
COc1ccc(C2C(Oc3ccccc3)C(=O)N2c2ccc(C)c(C)c2)cc1OC (centres undefined)	-0.4	4.9%	x	-32.1	-13.6
COc1ccccc1/C=C/C(=O)N1CCOCC1	-3.1	-12.7%	6.9	-0.5	-2.4
CS(=O)(=O)N1CCc2cc(C(=O)N3CCN(c4cccc(Cl)c4)CC3)ccc21	-0.9	x	x	x	3.6
O=C(O)CSc1nnc(-c2ccccc2)o1	-1.7	-10.7%	4.6	-52.0	1.2
COc1cc(/C=C/C(=O)O)cc(S(=O)(=O)N2CCc3ccccc3C2)c1OC	1.0	-4.3%	9.0	x	-7.8
c1ccc(-c2nc3ccccc3o2)nc1	-0.3	x	3.7	-56.3	-6.3

New compounds follow
SMILES	RecA splice inh	Mtb growth	Arbovirus anti	YopH inh	Mtb bLac sens	others
CCn1c(=O)c(C(=O)CN2CC(C)OC(C)C2)c(N)n(Cc2ccccc2)c1=O (centres undefined)	2.3	13.1%	3.0	-30.9	-11.0
CC1=C(NCCc2ccccc2)CCC1=O	-2.3	-8.4%	-0.7	-23.8	-0.2	Arbovirus anti repeat=-2.9
C/C(=N\Nc1ccc(Cl)c(Cl)c1)c1ccc(-n2ccnc2)cc1	5.7	u	-18.3	-23.3	99.8
Cc1nccn1CC(=O)N/N=C/c1ccccc1O	0.2	3.5%	x	x	-4.3
COc1ccc(-c2nnc(SCC(=O)N3CCCc4ccccc43)o2)cc1OC	-4.9	4.8%	-1.6	-8.6	-4.5
Cc1ccc(-n2c(SCC(=O)Nc3cccc(S(N)(=O)=O)c3)nc3ccccc32)cc1	3.0	3.3%	7.1	-28.8	9.6
CN(C)c1nc(N)nc(CSc2nc3cc(Cl)ccc3o2)n1	-0.5	3.4%	4.0	8.6	2.4
COc1cc(/C=N/N2CCCCC2)cc([N+](=O)[O-])c1O	-11.9	x	x	x	8.4
CN(C)S(=O)(=O)N1CCC(Oc2ccc(C(=O)N3C[C@@H]4CCC[C@H]3C4)cc2)CC1	-0.8	x	x	x	-2.1
Cc1[nH]c2ccccc2c1C(=O)NS(=O)(=O)Nc1ccc(F)cc1	-0.3	-10.3%	1.9	x	-7.1
Cc1cccc(N(C(=O)CNC(=O)c2ccco2)C(C(=O)NC2CCCC2)c2cccnc2)c1C (centres undefined)	-2.3	x	x	x	-5.9
O=C(CC(=O)Nc1ccc(Cl)cc1Cl)Nc1ccc(Cl)cc1Cl	-0.8	x	x	x	-3.7
N#CCCN(Cc1cccnc1)C(=S)Nc1ccccc1Cl	x	2.7%	18.7	x	x
CC1(C)Cc2ccccc2-c2nnc(-c3ccccn3)n21	-6.9	-1.5%	0.8	-23.7	-12.5
CC(NC(=S)NC1CCCCC1)C(c1cccs1)N1CCOCC1 (centres undefined)	2.3	-6.2%	x	x	-9.2
Cc1cccc(NC(=O)Cn2c(=O)n(CCc3c[nH]c4ccccc34)c(=O)c3cccnc32)c1	3.3	x	-4.7	-33.6	0.7
COc1ccc(COc2cc(-c3cccc(OC)c3)nc3ccc(NC(=O)c4ccc(Cl)cc4)cc23)cc1	-2.9	19.0%	-25.4	-36.1	63.0
CCCOc1cccc(C(=O)N/N=C/c2ccoc2)c1	1.1	x	x	x	5.6
COc1ccccc1C(=O)NCc1ccc(-c2nc3ccccc3s2)cc1	4.8	-0.6%	1.2	-26.0	52.2
COc1cc(OC)cc(C(=O)N(CCCN2C(=O)c3cccc4cccc(c34)C2=O)c2cccc(OC)c2)c1	4.6	-3.0%	14.6	-33.8	-0.7
CC(C)(C)OC(=O)[C@H](Cc1ccccc1)NC(=O)c1nc[nH]c1C(=O)N[C@@H](Cc1ccccc1)C(=O)OC(C)(C)C	4.7	28.6%	x	x	0.0
O=C(NN1C(=O)c2ccccc2C1=O)C1CCCCC1	-2.6	x	-1.0	-17.9	-9.6
O=c1[nH]sc2cc(F)ccc12	-3.4	4.2%	-25.0	x	x
CC1(C)CC(=O)C(CC2=C(N)CC(C)(C)CC2=O)=C(N)C1	-10.9	-11.4%	x	x	-11.7
COc1ccccc1Nc1ccc(C(=O)NC2CCCCC2)cn1	-1.1	-1.8%	1.5	-17.9	4.7

(listing goes on)
SMILES	RecA splice inh	Mtb growth	Arbovirus anti	YopH inh	Mtb bLac sens	others
O=c1c2ccccc2nc(SCc2ccncc2)n1CC1CCCO1 (centres undefined)	x	4.1%	-8.4	x	-17.4
COc1ccc(Nc2nc(N3CCOCC3)nc(N3CCOCC3)n2)cc1	2.3	x	x	x	3.9
COC(=O)C(C)n1cnc2c(nnn2-c2ccc(C)cc2)c1=O (centres undefined)	-3.0	x	x	x	-5.3
CCOC(=O)N1CCN(Cc2nc3cc(NC(=O)c4cccs4)ccc3n2CC)CC1	-2.1	x	x	x	-1.8
CCCn1c(CN2CCN(c3cccc(Cl)c3)CC2)nc2c1c(=O)n(C)c(=O)n2C	1.5	7.4%	12.2	-34.9	-1.2	Arbovirus anti repeat=6.4
O=C(CSc1nc2ccccc2c(=O)n1CC1CCCO1)Nc1ccccc1 (centres undefined)	0.6	x	x	x	-0.8
Cn1c(SCC(=O)NCc2cccs2)nnc1-c1ccncc1	2.6	-12.9%	-1.5	-13.1	3.1
CN(C(=O)c1ccc(Br)o1)C1(C)CCS(=O)(=O)C1 (centres undefined)	2.2	x	x	x	-6.5
Cc1cccnc1NC(=S)NCc1ccco1	1.1	5.9%	-2.0	x	65.3
Cc1nn(C)c(C)c1S(=O)(=O)NCCc1ccc(Cl)cc1	0.7	x	x	x	2.9
CCOC(=O)c1c(NC(=S)NC(=O)c2cnn(CC)c2)sc2c1CCC(C)C2 (centres undefined)	-2.9	-12.0%	1.4	-27.7	-4.2
CCCN(CC1CC1)C(=O)CSc1nnc(-c2ccco2)n1N	1.2	-11.1%	2.7	x	-8.2
Oc1ccccc1-c1cncn1Cc1ccccc1	0.4	x	x	x	2.6
Cc1ccc(-c2csc(/C(C#N)=C/Nc3ccc4c(c3)OCCO4)n2)cc1	-2.3	-3.1%	-22.8	-20.1	6.1
C=CCn1c(=N)c(C#N)cc2c(=O)n3ccccc3nc21	i	-14.5%	-2.1	-7.0	-6.0
CCCCCCn1c(SCCN2CCOCC2)nc2c1c(=O)[nH]c(=O)n2C	1.3	-7.8%	6.2	-5.7	-6.0
Cc1ccc(N2C(=O)CC(NCC3CCCO3)C2=O)cc1 (centres undefined)	-1.9	-9.7%	0.4	x	-5.5
NS(=O)(=O)c1ccc(CCNC(=O)c2ccc3nc4ccc(Cl)cc4c(=O)n3c2)cc1	-4.3	10.1µM*	11.4	x	93.7
CC(C)(C)C(=O)Nc1cc2c3c(c1)CCC(=O)N3CCC2	1.3	x	x	x	0.9
COc1ccc(C(=O)c2sc(Nc3ccc(NC(C)=O)cc3)nc2C)cc1	-0.6	x	x	x	-3.0
COCCCNC(=O)c1ccc2c(c1)nc(C)n2-c1cccc(C)c1	-1.3	x	x	x	1.6
C=CCN=C1CC(C)(C)CC(=O)/C1=C(/O)CCC(=O)OC	-0.2	-3.5%	9.7	7.5	u
Cc1c(C(=O)Nc2cccc(N(C)S(C)(=O)=O)c2)cccc1[N+](=O)[O-]	-0.6	-4.2%	-1.0	x	2.0
CC(=O)c1cccc(NC(=O)c2ccc3ccccc3c2)c1	-1.0	x	x	x	7.2
COc1ccccc1N(C(=O)c1snc(C(N)=O)c1N)C(C(=O)NC1CCCC1)c1ccc(N(C)C)cc1 (centres undefined)	1.3	x	x	x	5.3
COc1ccc(NC(=O)Cc2cccs2)c(OC)c1	1.9	0.3%	-12.1	-30.9	-8.3

Source: PubChem BioAssay
